High-throughput results as filed in PubChem.
Insulin prom inh: TRM-6 insulin promoter activity inhibition | TRM-6 cells (human fetal islet line), insulin promoter-eGFP reporter, imaging; reporter expression induced with tamoxifen | inhibition, % at 2 µM | actives 0.9% (n = 130,000) | AID 1273;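 active = inhibition above the mean plus 3 SD, with well images judged a real hit on visual review, cut at about 60% in these data, passing the limit was not always enough; inconclusive = inhibition over the cutoff but images rejected on review; inactive = inhibition not above the cutoff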
GALR2 ag: activates the human galanin receptor 2 | O43603 | GALR2-expressing cells, agonist activation read-out | activation, %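 (tested at 5 µM)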 | actives 0.48% (n = 140,000) | AID 803;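 active = above mean plus 3 SD of all compounds, about 5% in these data, not always enough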;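 note: 0% = vehicle buffer wells and 100% = reference agonist at full effect; tested in CHO reporter cells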
Target sequence (O43603 whole entry, looked up): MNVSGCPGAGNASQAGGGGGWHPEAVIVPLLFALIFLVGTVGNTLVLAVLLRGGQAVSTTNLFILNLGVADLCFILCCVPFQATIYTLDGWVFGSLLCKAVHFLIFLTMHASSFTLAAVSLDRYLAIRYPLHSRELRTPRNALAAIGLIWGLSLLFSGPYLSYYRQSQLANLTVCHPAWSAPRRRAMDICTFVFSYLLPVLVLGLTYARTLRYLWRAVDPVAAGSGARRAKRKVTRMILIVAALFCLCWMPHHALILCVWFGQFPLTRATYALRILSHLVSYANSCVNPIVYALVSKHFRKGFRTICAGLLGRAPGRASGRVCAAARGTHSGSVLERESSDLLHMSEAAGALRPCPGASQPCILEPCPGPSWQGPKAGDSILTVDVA
PKD1 inh: blocks activity of human protein kinase D1; Q15139; PKD1 kinase fluorescence polarization assay; inhibition, %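 (about 10 µM by stock and volumes)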; actives 0.056% (n = 200,000); AID 797;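 active = inhibition of 50% or more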;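 note: controls were vehicle for no effect and a reference inhibitor for full effect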
RGS16-Gao: modulates binding between human RGS16 and Galphao. AID 1441. binding response (% of control), % at 10 µM. actives 0.38% (n = 220,000). bead-based flow cytometry RGS16-Galphao binding, fluorescence; actives lie on both sides;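 active = below 25% or above 175%, edge rows of some plates excepted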;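 note: Galphao activated by GDP with aluminum fluoride before binding; 100% = wells without compound and 0% = beads without RGS; some results beyond the cut were filed as inactive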
Target sequence (O15492 whole entry, looked up): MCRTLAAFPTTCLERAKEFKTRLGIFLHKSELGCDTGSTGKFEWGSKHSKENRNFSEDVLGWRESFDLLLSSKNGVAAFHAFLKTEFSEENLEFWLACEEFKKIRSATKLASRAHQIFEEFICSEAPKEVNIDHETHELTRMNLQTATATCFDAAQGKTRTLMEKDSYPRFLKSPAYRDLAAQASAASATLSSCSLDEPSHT
Target sequence (P09471 whole entry, looked up): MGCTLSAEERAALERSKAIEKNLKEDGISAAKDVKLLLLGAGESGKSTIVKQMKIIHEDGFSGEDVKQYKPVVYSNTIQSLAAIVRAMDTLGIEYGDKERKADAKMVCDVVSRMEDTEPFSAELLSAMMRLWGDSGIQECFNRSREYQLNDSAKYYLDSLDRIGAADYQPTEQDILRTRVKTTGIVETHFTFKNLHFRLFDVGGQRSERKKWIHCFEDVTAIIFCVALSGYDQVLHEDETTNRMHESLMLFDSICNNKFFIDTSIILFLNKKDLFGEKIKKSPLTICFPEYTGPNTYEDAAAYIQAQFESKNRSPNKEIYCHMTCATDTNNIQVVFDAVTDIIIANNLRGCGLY
HSV replic up: increases HSV replication in cells; HSV replication augmentation in cells, fold increase; maximum fold increase; actives 0.005% (n = 220,000); AID 1956;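 active = peak rise of 1.5-fold or more in the series; inconclusive = self-fluorescent or not available for retest; tested in PC3 cells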;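 note: first round at 10 µM; read as green reporter fluorescence; hits show the peak of a series up to 25 µM; 1 = signal of infected wells without compound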
Insulin prom inh cell count: recorded beside Insulin prom inh, whose call it bears; normalized cell count, %; measured here: cell count, toxicity; reference of the scale not given here;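 cells exposed to compound for 48 h; stained nuclei by imaging scaled within each plate; lower means fewer cells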
HSV replic up primary fold: recorded beside HSV replic up, whose call it bears; fold increase; compound at 10 µM; measured here: primary screen fold increase 10 uM; tested in PC3 cells;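 GFP signal in the first replicate; 1 = infected wells without compound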
An asterisk follows results filed as active; i = inactive; ? = inconclusive; · = no result given.

SMILES | Insulin prom inh | Insulin prom inh cell count | GALR2 ag | PKD1 inh | RGS16-Gao | HSV replic up | HSV replic up primary fold
CCOC(=O)C1=C(C)N=c2s/c(=C\c3cccn3C)c(=O)n2C1c1cccc(OC)c1OC (configuration not stated) | 8 | 95 | -1.8 | -10 | 95 | ? | ·
CCOc1nc(SCCOc2ccccc2)nc(N(C)C)n1 | · | · | -0.2 | -7 | 106 | i | 0.95
O=C(Nc1nnc(-c2ccc(F)cc2)o1)c1ccco1 | · | · | · | · | 73 | i | 0.92
Cc1ccc(C(NC(=O)N2CC(C)OC(C)C2)C(Cl)Cl)cc1F (configuration not stated) | · | · | -1.3 | -2 | 98 | i | 0.99
CC(=O)c1cc(C(=O)N2CCCC(CCC(=O)N(C)CCc3ccccn3)C2)cs1 (configuration not stated) | · | · | · | -4 | 101 | i | 1.1
CCn1cc(-c2cc(C(=O)O)on2)c(C)n1 | -223 | 91 | · | -6 | 101 | i | 1
CC(C)CNC(=O)c1cccc(NC(=O)CSc2ccccc2)c1 | · | · | -1.2 | -13 | 100 | i | 0.9
CCCCN=C1NN=C(c2cccc([N+](=O)[O-])c2)CS1 | 0 | 71 | · | 3 | 107 | i | 0.89
CCc1cc2c(SCC(=O)NC3CCS(=O)(=O)C3)ncnc2s1 (configuration not stated) | · | · | · | 11 | 96 | i | 0.94
CCOC(=O)COc1ccc(Cl)cc1C1NC(=O)NC(C)=C1C(C)=O (configuration not stated) | 66 | 174 | -3.2 | -7 | 103 | i | 0.84
O=C1CC(C(=O)Nc2ccccc2)S/C(=N\NC(=O)c2ccccc2Cl)N1 (configuration not stated) | -10 | 129 | · | 1 | 108 | i | 0.98
FC(F)Oc1ccc(-c2csc(Cc3nnc4n3CCCCC4)n2)cc1 | -55 | 96 | -0.3 | 0 | 104 | i | 1.1
Cc1cc(=O)[nH]c(N/N=C/c2ccc(Cl)c([N+](=O)[O-])c2)n1 | · | · | · | · | 98 | i | 0.86
FC(F)(F)Sc1ccc(NC(=S)NCc2ccccc2)cc1 | · | · | · | · | 103 | i | 1
N#Cc1ccc(OCC(=O)NCCc2ccc(S(N)(=O)=O)cc2)cc1 | 14 | 86 | -1.2 | 3 | 107 | i | 0.91
COc1ccccc1C(=O)N1CCN(c2cccc(Cl)c2)CC1 | · | · | -1.1 | -5 | 101 | i | 0.74
COC(=O)C1(CCSC)NC(c2ccc(O)cc2)C2C(=O)N(c3ccc4c(c3)OCCO4)C(=O)C21 (configuration not stated) | -34 | 150 | -1.6 | -6 | 101 | i | 1.1
CC1=NN(c2ccccc2)C(=O)/C1=C\c1cn(C)c2ccccc12 | 27 | 187 | · | -7 | 112 | i | 0.95
CC(=O)NC(Cc1ccccc1C)C(=O)NC1CCN(C(=O)c2ccc(C)cc2)CC1 (configuration not stated) | 27 | 117 | · | -10 | 53 | i | 1
COc1ccccc1N/N=C1\COC(C)(C)CC1=O | · | · | · | · | 97 | i | 1.1
N#Cc1c(SCC(=O)O)nc(N2CCOCC2)c2c1CCCC2 | · | · | · | · | 108 | i | 0.88
COc1ccc(NC(=O)C2CCN(C(=O)c3cccs3)CC2)cc1OC | 43 | 87 | -2.0 | -17 | 103 | i | 1
CC(=O)c1c(C)[nH]c(C(=O)Nc2ccc(C)c(S(=O)(=O)Nc3ccc(C)cc3C)c2)c1C | · | · | · | · | 104 | i | 0.97
O=C(c1cc(Cl)cc(Cl)c1)N1CCN(c2cc(C(F)(F)F)nc3ccccc23)CC1 | · | · | · | · | 99 | i | 0.98
C/C(NCc1ccccc1)=C(\C#N)C(=O)NCc1ccccc1 | 38 | 111 | -2.2 | -3 | 100 | i | 0.95

Some values from the entries so far:
In HSV replic up primary fold, O=C(Nc1nnc(-c2ccc(F)cc2)o1)c1ccco1 has 0.92
In PKD1 inh, CC(C)CNC(=O)c1cccc(NC(=O)CSc2ccccc2)c1 has -13
In RGS16-Gao, CC(=O)NC(Cc1ccccc1C)C(=O)NC1CCN(C(=O)c2ccc(C)cc2)CC1 (configuration not stated) has 53

Continued:
SMILES | Insulin prom inh | Insulin prom inh cell count | GALR2 ag | PKD1 inh | RGS16-Gao | HSV replic up | HSV replic up primary fold
O=C(Cc1ccc(Cl)cc1)NC1CC1 | · | · | · | 3 | 105 | i | 1
O=C(N/N=C/c1c(Cl)nc2ccccn2c1=O)c1cccnc1 | · | · | · | · | 100 | i | 1.1
Cc1cccc(-n2nc3c(c2NC(=O)c2ccco2)CS(=O)C3)c1C (configuration not stated) | · | · | · | -15 | 100 | i | 1
N#CCCN(C(=O)COC(=O)c1ccc(CNS(=O)(=O)c2ccc(F)c(Cl)c2)cc1)c1ccc(F)cc1 | 8 | 67 | 0.3 | 2 | 97 | i | 1.1
COc1ccc(C)cc1NC(=S)NN1CCN(C)CC1 | 5 | 114 | · | 9 | 103 | i | 1.1
Cc1ccc(NC(=S)NC2CC3CCC(C2)N3Cc2ccco2)c(C)c1 (configuration not stated) | -26 | 121 | -3.5 | 7 | 96 | i | 1
CN(C)c1ccc(/C=N/NC(=O)C2COc3ccccc3O2)o1 (configuration not stated) | 0 | 135 | 0.3 | -2 | 96 | i | 0.96
Cc1n[nH]c(C)c1S(=O)(=O)N1CCOCC1 | -19 | 53 | -1.1 | -10 | 98 | i | 1
O=C(c1cccc(S(=O)(=O)N2CCOCC2)c1)N1CCCc2ccccc21 | -45 | 188 | -4.5 | -1 | 102 | i | 1.1
COc1ccccc1C(c1nnnn1C(C)(C)C)N1CCCc2ccccc21 (configuration not stated) | -37 | 65 | -0.8 | 4 | 104 | · | ·
CCCCC(NC(=O)c1ccccc1)C(=O)OCC(=O)N1c2ccccc2Sc2ccccc21 (configuration not stated) | 30 | 97 | 0.8 | -9 | 100 | i | 0.82
S=c1[nH]nc([C@@H]2C[C@H]2c2ccccc2)n1-c1ccccc1Cl | · | · | · | · | 101 | i | 1
COc1ccc2nc(SCC(=O)Nc3ccc(S(=O)(=O)Nc4onc(C)c4C)cc3)[nH]c2c1 | -14 | 169 | 0.4 | -8 | 99 | i | 0.94
Cc1ccccc1N1CC(C(=O)Nc2nnc(SCC(=O)Nc3nccs3)s2)CC1=O (configuration not stated) | 4 | 85 | 0.3 | -1 | 96 | i | 1
O=C(NCc1cccc(Br)c1)C1CC(c2ccccc2C(F)(F)F)=NO1 (configuration not stated) | · | · | · | · | 93 | i | 0.8
Cc1ccc(Nc2nc(N)nc(CN3CCN(Cc4ccc5c(c4)OCO5)CC3)n2)cc1 | 52 | 85 | -0.5 | -3 | 103 | i | 0.88
Nc1cc(-c2ccc(Br)cc2)nn1Cc1ccccc1 | · | · | · | 0 | 103 | i | 0.89
COc1ccc(-n2cc(C(=O)Nc3cc([N+](=O)[O-])ccc3OC)c3ccccc3c2=O)cc1 | -16 | 68 | -0.1 | -3 | 155 | i | 1
CC(C)C1N(S(=O)(=O)c2ccccc2)CCN1S(=O)(=O)c1ccccc1 | -15 | 235 | -1.0 | -7 | 99 | i | 0.84
Nc1ccccc1-c1nnc(SCc2ccccc2F)[nH]c1=O | 42 | 120 | -1.5 | 12 | 91 | i | 1
O=C1CCC(=O)N1c1ccccc1-c1ccccc1 | 36 | 80 | -2.2 | -8 | 109 | i | 1
NC1=NC(c2ccc(Cl)cc2)C(C(=O)c2ccccc2)N1 (configuration not stated) | · | · | · | · | 99 | i | 0.91
CCOC(=O)N1CCN(S(=O)(=O)c2ccc3c(c2)SCC(=O)N3)CC1 | · | · | -0.3 | 1 | 86 | · | ·
Cc1ccc(C(=O)COc2cccc(NC(=O)c3ccco3)c2)cc1 | -13 | 190 | -1.2 | -7 | 102 | i | 0.97
CCOC(=O)c1cnc2c(c(C)nn2C)c1Oc1ccc(Cl)cc1 | -30 | 71 | -2.0 | 1 | 121 | i | 0.82

Continued, overlapping the part above by 3 compounds.
SMILES | Insulin prom inh | Insulin prom inh cell count | GALR2 ag | PKD1 inh | RGS16-Gao | HSV replic up | HSV replic up primary fold
CCOC(=O)N1CCN(S(=O)(=O)c2ccc3c(c2)SCC(=O)N3)CC1 | · | · | -0.3 | 1 | 86 | · | ·
Cc1ccc(C(=O)COc2cccc(NC(=O)c3ccco3)c2)cc1 | -13 | 190 | -1.2 | -7 | 102 | i | 0.97
CCOC(=O)c1cnc2c(c(C)nn2C)c1Oc1ccc(Cl)cc1 | -30 | 71 | -2.0 | 1 | 121 | i | 0.82
Cc1ccc(Nc2nnc(SCC(=O)Nc3ncc(S(=O)(=O)c4ccc([N+](=O)[O-])cc4)s3)s2)cc1 | -4 | 92 | -0.1 | -5 | 109 | i | 1
O=C(COc1ncnc2ccccc12)Nc1cc([N+](=O)[O-])ccc1F | · | · | · | · | 102 | i | 0.92
COc1ccc(-c2ncccc2OC(=O)C23CC4CC(CC(C4)C2)C3)cc1OC | 15 | 98 | -1.4 | -5 | 100 | i | 1
COC(=O)c1c(NC(=O)c2cccc([N+](=O)[O-])c2)sc(C(N)=O)c1C | 33 | 102 | · | 0 | 97 | i | 0.83
O=C(CN1C(=O)NC2(CCCC2)C1=O)Nc1cccc(-c2nnc3n2CCCCC3)c1 | · | · | -0.1 | 8 | 102 | i | 0.9
Cc1cc(C)cc(N(C(=O)c2ccc(Br)o2)C2C=CS(=O)(=O)C2)c1 (configuration not stated) | -26 | 75 | · | -5 | 97 | i | 1.1
Cc1cc(C)c(S(=O)(=O)c2c(C)cccc2C)c(OCC(C)C)n1 | · | · | 0.3 | -11 | 91 | i | 1
Cc1ccc(OCCN2C(=O)c3ccccc3C2=O)c(C)c1 | 33 | 65 | -1.5 | 8 | 89 | i | 1
CCOC(=O)Cc1csc(SCC(=O)NC2CCCC(C)C2C)n1 (configuration not stated) | · | · | 0.1 | 5 | 96 | i | 0.96
CCCC1(C(=O)OCC)NC(c2ccc(O)cc2)C2C(=O)N(c3ccc4c(c3)OCCO4)C(=O)C21 (configuration not stated) | 20 | 90 | -1.6 | -4 | 94 | i | 1.1
CCCOc1ccc([N+](=O)[O-])c(N)c1 | 22 | 116 | -0.9 | -8 | 96 | i | 0.72
CCOc1ccc(Nc2nc(N)nc(CSC(=S)N3CCOCC3)n2)cc1 | · | · | · | · | 97 | i | 1.1
O=C(COc1ncnc2ccccc12)N1CCN(C(=O)c2ccco2)CC1 | 23 | 70 | -1.1 | -3 | 103 | i | 0.96
CCN(CC)S(=O)(=O)c1cc(C(=O)Oc2cccc(-c3cnc4ccccc4n3)c2)ccc1Br | 14 | 140 | -1.6 | -1 | -29* | i | 0.93
CCOC(=O)c1ccc(NC(=O)C2CC(=O)N=C(N)S2)cc1 (configuration not stated) | · | · | · | -4 | 102 | i | 1.1
CCCCCOc1ccc(NS(C)(=O)=O)cc1 | -36 | 98 | -1.2 | -2 | 115 | · | ·
CCN(CC)c1ccc([N+](=O)[O-])cc1C(=O)O | · | · | -0.2 | -10 | 100 | i | 0.97
Cc1ccc(NC(=O)CSc2ncnc3ccccc23)cc1S(=O)(=O)N1CCCCCC1 | -13 | 63 | -0.6 | 1 | 108 | i | 0.99
COc1cc(C#N)c(NC(=O)CN2CCC(C(N)=O)CC2)cc1OC | · | · | · | 17 | 97 | i | 0.76
CCN(CC)CCNc1ccc2nnc(CCNS(=O)(=O)c3ccc(C)cc3)n2n1 | 33 | 112 | · | -5 | 11* | i | 1
O=C(O)CNC(=O)/C(=C/c1ccco1)NC(=O)/C=C/c1ccccc1 | · | · | -2.3 | -6 | 88 | i | 1.1
CC(=O)C1=C(Nc2ccccc2)CC(C)(O)C(C(C)=O)C1c1ccccc1 (configuration not stated) | · | · | · | · | 104 | i | 1.2
Cc1ccc(O)c(C(=O)c2cc(C#N)c3nc4ccccc4n3c2)c1 | 0 | 140 | · | -6 | 100 | · | ·
O=C(Nc1ccc2oc(-c3ccccc3)nc2c1)c1cccnc1 | -64 | 108 | -1.2 | -3 | 104 | i | 1.1

Random excerpt: 2 entries already listed.
SMILES | Insulin prom inh | Insulin prom inh cell count | GALR2 ag | PKD1 inh | RGS16-Gao | HSV replic up | HSV replic up primary fold
O=C(O)CNC(=O)/C(=C/c1ccco1)NC(=O)/C=C/c1ccccc1 | · | · | -2.3 | -6 | 88 | i | 1.1
CCOC(=O)c1ccc(NC(=O)C2CC(=O)N=C(N)S2)cc1 (configuration not stated) | · | · | · | -4 | 102 | i | 1.1

One compound at a time, from the list above:
`CCOC(=O)c1ccc(NC(=O)C2CC(=O)N=C(N)S2)cc1` (configuration not stated) is listed with Insulin prom inh: ·; Insulin prom inh cell count: ·; GALR2 ag: ·; PKD1 inh: -4; RGS16-Gao: 102; HSV replic up: i; HSV replic up primary fold: 1.1
`CCOC(=O)Cc1csc(SCC(=O)NC2CCCC(C)C2C)n1` (configuration not stated) is listed with Insulin prom inh: ·; Insulin prom inh cell count: ·; GALR2 ag: 0.1; PKD1 inh: 5; RGS16-Gao: 96; HSV replic up: i; HSV replic up primary fold: 0.96
